Screening data (PubChem)
CBX7 inh: CBX7 inhibition, primary AlphaScreen; 1.1% of 66,000 active; AlphaScreen His6-CBX7 / biotin-H3K27me3 peptide binding; active compounds read low; AID 1224903; normalised signal (fraction of DMSO) (test concentration not listed); in the data active means normalised signal below about 0.5;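 further: 100 nL library stock added to about 20 µL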
Target sequence (O95931 whole entry, looked up): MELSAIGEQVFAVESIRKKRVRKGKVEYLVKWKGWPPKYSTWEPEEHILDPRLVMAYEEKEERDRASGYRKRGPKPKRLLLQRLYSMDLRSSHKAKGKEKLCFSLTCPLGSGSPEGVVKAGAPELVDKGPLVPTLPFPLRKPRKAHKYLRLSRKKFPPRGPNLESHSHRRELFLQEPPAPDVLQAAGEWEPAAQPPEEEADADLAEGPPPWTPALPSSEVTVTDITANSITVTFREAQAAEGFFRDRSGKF
CBX7 inh z-score: further read-out of CBX7 inh, marked with its call; z-score; measured here: z-score of CBX7 signal; some inactives read as strong as hits; reference of the scale not given here;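 same signal on another scale; lower means less binding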
Numbers without * were called inactive; & = joins results of further samples.

(1) CCOC(=O)C1CCN(C(=O)c2c(-c3c(F)cccc3Cl)noc2C)CC1
(2) COc1ccc(NC(=O)Cn2c(C)cc3ccccc3c2=O)cc1OC
(3) CC(C)c1ccc(NC(=O)C2CCN(C(=O)c3cnn(-c4ccccc4)c3-n3cccc3)CC2)cc1
(4) Cc1ccc(CN2C(=O)c3ccccc3C2C(=O)NCc2cccnc2)cc1 (configuration not stated)
(5) COc1ccc(OC)c(NC(=O)c2cc3c(n(-c4ccc(Cl)cc4)c2=O)CCCC3=O)c1
(6) COc1ccc(-c2nc(Cn3c(SCc4ccc(F)cc4)nc4ccncc43)c(C)o2)cc1OC
(7) Cc1ccc(CC(=O)Nc2ccc3nc(N4CCC(C)CC4)cc(C)c3c2)cc1
(8) O=C(Cn1ccc2ccccc2c1=O)NCC(=O)Nc1ccc(Oc2ccccc2)cc1

| assay / compound | 1 | 2 | 3 | 4 | 5 | 6 | 7 | 8 |
| --- | --- | --- | --- | --- | --- | --- | --- | --- |
| CBX7 inh z-score | -0.74 | 0.83 | -1.5 | 0.69 | 1.2 | -2.2 | 2.8 | 2.1 |
| CBX7 inh | 0.98 | 1 | 0.81 | 1 | 1.3 | 0.95 | 1.1 | 1 |

Ordered by value in CBX7 inh z-score (highest first): some entries from above
nr | mol | CBX7 inh z-score
7 | Cc1ccc(CC(=O)Nc2ccc3nc(N4CCC(C)CC4)cc(C)c3c2)cc1 | 2.8
5 | COc1ccc(OC)c(NC(=O)c2cc3c(n(-c4ccc(Cl)cc4)c2=O)CCCC3=O)c1 | 1.2
1 | CCOC(=O)C1CCN(C(=O)c2c(-c3c(F)cccc3Cl)noc2C)CC1 | -0.74

Continuation.
(9) NS(=O)(=O)c1ccc(NC(=O)c2cnc3sccn3c2=O)cc1
(10) O=S(=O)(NCc1ccc2c(c1)OCO2)c1cnc[nH]1
(11) COc1cccc(Nc2nc(-c3ccccc3)c3cc(Br)ccc3n2)c1
(12) Cc1oc(-c2ccc(Cl)cc2)nc1CSCC(=O)NC1CCCC(C)C1C (configuration not stated)
(13) Cc1ccc(NC(=O)C2CCCN(S(=O)(=O)c3c(C)noc3/C=C/c3cccs3)C2)nc1 (configuration not stated)
(14) C1=C(CCNc2nnc(Cc3ccncc3)c3ccccc23)CCCC1
(15) NC(=O)CSc1ncc(-c2ccc(Cl)cc2)[nH]1
(16) COc1ccccc1Nc1ncc(C(=O)NCCCOC(C)C)c2ccccc12

| assay / compound | 9 | 10 | 11 | 12 | 13 | 14 | 15 | 16 |
| --- | --- | --- | --- | --- | --- | --- | --- | --- |
| CBX7 inh z-score | -2.1 | 0.37 | 8.3 | -0.31 | -0.97 | -1.8 | 0.46 | 4.5 |
| CBX7 inh | 0.82 | 1.2 | 1.5 | 0.99 | 0.95 | 0.92 | 1 | 1.2 |

(17) COc1ccccc1N1CCN(CC(O)COc2cc(C)ccc2C(C)C)CC1 (configuration not stated)
(18) CCCc1sc(Nc2ccccc2OCC)nc1-c1ccc(Cl)c(Cl)c1
(19) Cc1ccccc1C(=O)Nc1sc2c(c1C(=O)N1CCOCC1)CCCC2
(20) COc1cc2nnc3c(c(C)nn3-c3ccccc3)c2cc1OC
(21) Cc1cccc(C)c1Nc1c(-c2ccccn2)nc2sccn12
(22) O=C(c1ccc(Cl)cc1)N1CCN(c2nnc(-c3ccccc3)c3ccccc23)CC1
(23) O=C(Nc1ccc(N2CCOCC2)cc1)c1ccc(-c2ccc(F)cc2)o1
(24) O=C(NCc1ccc(Cl)cc1)c1cc2c(s1)-c1ccccc1OC2

| assay / compound | 17 | 18 | 19 | 20 | 21 | 22 | 23 | 24 |
| --- | --- | --- | --- | --- | --- | --- | --- | --- |
| CBX7 inh z-score | -1.1 | -1.3&3.9 | -2 | 1.2 | -5.9* | -5.7 | -5.1 | 1.9 |
| CBX7 inh | 0.85 | 0.89&1.4 | 0.81 | 1 | 0.5* | 0.87 | 0.89 | 1.1 |

(25) Cc1ccc(NC(=O)c2cnc3sccn3c2=O)c(C)c1
(26) CC(C)CCNC(=O)c1cc(=O)[nH]c2ccc(S(=O)(=O)N3CCCCCC3)cc12
(27) N#Cc1cccc(NC(=O)c2ccc3c(c2)N(Cc2cccc(Cl)c2)C(=O)c2ccccc2S3(=O)=O)c1
(28) COc1ccc(N2Cc3cccc(C(=O)Nc4ccc5c(c4)OCO5)c3C2=O)cc1
(29) CCc1cccc(CC)c1NS(=O)(=O)c1ccc2c(c1)CCN2C(=O)C1CC1
(30) Cc1ccc(C(C(=O)NC2CCCC2)N2CCOCC2)cc1 (configuration not stated)
(31) CCC(=O)N1CCc2cc(S(=O)(=O)NCCC(=O)N3CCc4ccccc4C3)ccc21
(32) O=C(Nc1c(-c2ccc(F)cc2)nc2ccccn12)C1CCCCC1

| assay / compound | 25 | 26 | 27 | 28 | 29 | 30 | 31 | 32 |
| --- | --- | --- | --- | --- | --- | --- | --- | --- |
| CBX7 inh z-score | -0.7 | 0.37 | -2.1 | -4 | -0.9 | 3.3 | 0.16 | -0.4 |
| CBX7 inh | 0.94 | 1 | 0.86 | 0.79 | 0.97 | 1.1 | 1 | 0.99 |

A different layout for part of the listing above.
| cpd | structure | CBX7 inh z-score | CBX7 inh |
| --- | --- | --- | --- |
| 17 | COc1ccccc1N1CCN(CC(O)COc2cc(C)ccc2C(C)C)CC1 (configuration not stated) | -1.1 | 0.85 |
| 18 | CCCc1sc(Nc2ccccc2OCC)nc1-c1ccc(Cl)c(Cl)c1 | -1.3&3.9 | 0.89&1.4 |
| 19 | Cc1ccccc1C(=O)Nc1sc2c(c1C(=O)N1CCOCC1)CCCC2 | -2 | 0.81 |
| 20 | COc1cc2nnc3c(c(C)nn3-c3ccccc3)c2cc1OC | 1.2 | 1 |
| 21 | Cc1cccc(C)c1Nc1c(-c2ccccn2)nc2sccn12 | -5.9* | 0.5* |
| 22 | O=C(c1ccc(Cl)cc1)N1CCN(c2nnc(-c3ccccc3)c3ccccc23)CC1 | -5.7 | 0.87 |
| 23 | O=C(Nc1ccc(N2CCOCC2)cc1)c1ccc(-c2ccc(F)cc2)o1 | -5.1 | 0.89 |
| 24 | O=C(NCc1ccc(Cl)cc1)c1cc2c(s1)-c1ccccc1OC2 | 1.9 | 1.1 |
| 25 | Cc1ccc(NC(=O)c2cnc3sccn3c2=O)c(C)c1 | -0.7 | 0.94 |
| 26 | CC(C)CCNC(=O)c1cc(=O)[nH]c2ccc(S(=O)(=O)N3CCCCCC3)cc12 | 0.37 | 1 |
| 27 | N#Cc1cccc(NC(=O)c2ccc3c(c2)N(Cc2cccc(Cl)c2)C(=O)c2ccccc2S3(=O)=O)c1 | -2.1 | 0.86 |
| 28 | COc1ccc(N2Cc3cccc(C(=O)Nc4ccc5c(c4)OCO5)c3C2=O)cc1 | -4 | 0.79 |
| 29 | CCc1cccc(CC)c1NS(=O)(=O)c1ccc2c(c1)CCN2C(=O)C1CC1 | -0.9 | 0.97 |
| 30 | Cc1ccc(C(C(=O)NC2CCCC2)N2CCOCC2)cc1 (configuration not stated) | 3.3 | 1.1 |

(listing goes on)
(33) CCCNC(=O)C(CC(C)C)NS(=O)(=O)c1ccc2c(c1)CCN2C(=O)CC (configuration not stated)
(34) CN(C)C(=O)N1CCC(C(=O)NCc2ccccc2Cl)CC1
(35) CC(C)CCn1c(COc2ccc(Cl)cc2)nc2ccccc21
(36) CCOC(=O)N1CCC(NC(=O)C2CCN(Cc3nc(-c4ccc(Cl)cc4)oc3C)CC2)CC1
(37) CCN1CCCc2cc(CN(C(=O)Nc3ccc(C)c(C)c3)C3CCCC3)ccc21
(38) Cc1ccccc1CNC(=O)CSCc1cnn(-c2ccccc2)c1-n1cccc1
(39) Cc1ccc(-n2cnc3cc(NC(=O)c4ccccc4)ccc32)cc1
(40) CCn1c(C(O)c2ccc(OCc3ccccc3)c(OC)c2)nc2ccccc21 (configuration not stated)

| assay / compound | 33 | 34 | 35 | 36 | 37 | 38 | 39 | 40 |
| --- | --- | --- | --- | --- | --- | --- | --- | --- |
| CBX7 inh z-score | 2.5 | 2 | 1 | 1.6 | -8.8* | 1.7 | -0.43 | -4.3 |
| CBX7 inh | 1.1 | 1 | 1 | 1.1 | 0.44* | 1 | 0.62 | 0.8 |

(41) Cc1ccc(N2CC(c3nc4ccccc4n3Cc3ccccc3F)CC2=O)cc1C (configuration not stated)
(42) C=C(C)c1cccc(C(C)(C)NC(=O)N2CCC(C(N)=O)CC2)c1
(43) CC(C)OCCCNC(=O)c1c[nH]c2ccc(S(=O)(=O)Nc3ccc(C(C)C)cc3)cc2c1=O
(44) CCCOc1cccc(C(=O)Nc2ccc3nn(-c4cccc(Cl)c4)nc3c2)c1
(45) O=S(=O)(c1ccccc1)c1nc(-c2ccc(F)cc2)oc1N1CCCCC1
(46) CCCCCCNC(=O)c1c[nH]c2ccc(S(=O)(=O)N(C)c3cc(C)ccc3C)cc2c1=O
(47) O=C(Nc1ccc(F)cc1F)C1CCCN(C(=O)c2cnn(-c3ccccc3)c2-n2cccc2)C1 (configuration not stated)
(48) COc1cccc(C(=O)Nc2ccc3oc(-c4ccccc4F)nc3c2)c1

| assay / compound | 41 | 42 | 43 | 44 | 45 | 46 | 47 | 48 |
| --- | --- | --- | --- | --- | --- | --- | --- | --- |
| CBX7 inh z-score | -2 | 4.5 | -1.9 | 3.2 | -0.41 | 1.5 | 0.98 | 2.4 |
| CBX7 inh | 0.91 | 1.1 | 0.9 | 1.1 | 0.63 | 1.2 | 1.1 | 1.1 |

(49) CCOC(=O)c1cc(-c2ccccc2)n(CCC(=O)Nc2ccc(C)cc2Cl)c1C
(50) Cc1ccc(NC(=O)CCN2N=C(c3ccccc3)CCC2=O)c(C)c1
(51) O=C(CN1C(=O)CSc2ccccc21)N1CCc2ccccc21
(52) CC(=O)c1nn(-c2cccc(Cl)c2)cc1C(=O)c1cccs1
(53) COc1ccc(-c2nc(-c3cccc(C(F)(F)F)c3)no2)c(OC)c1
(54) O=C(Nc1ccncc1)C1CCN(C(=O)c2cnn(-c3ccccc3)c2-n2cccc2)CC1
(55) CCOc1cc2c(cc1OCC)C(C1CCCCC1)NCC2 (configuration not stated)
(56) CC1CCC(NC(=O)C2CCN(C(=O)c3cnn(-c4ccccc4)c3-n3cccc3)CC2)CC1 (configuration not stated)

| assay / compound | 49 | 50 | 51 | 52 | 53 | 54 | 55 | 56 |
| --- | --- | --- | --- | --- | --- | --- | --- | --- |
| CBX7 inh z-score | 0.6 | -0.24 | 0.035 | -0.17 | 3.6 | -0.23 | 1.5 | 0.73 |
| CBX7 inh | 1 | 0.99 | 1 | 0.98 | 1.2 | 0.99 | 1.1 | 1.1 |

(57) CCCOc1cccc(CN2CCCCC2c2cccnc2)c1 (configuration not stated)
(58) CCc1ccccc1N(CC)C(=O)c1cn(CC(C)C)c(=O)c2cc(OC)c(OC)cc12
(59) Cc1ccc2c(c1)-c1c(cnn1CC(=O)NC1CCCCCC1)CO2
(60) Cc1ccc(-c2nnc(Nc3cccc(O)c3)c3ccccc23)cc1S(=O)(=O)NCCO
(61) O=C(Cn1c(=O)n(Cc2ccccc2)c(=O)c2cccnc21)Nc1ccccc1C(F)(F)F
(62) Cc1cccc(N(C)C(=O)Cc2c(C(=O)O)[nH]c3ccccc23)c1
(63) Cc1ccc(-c2nc(CS(=O)(=O)CC(=O)NCc3ccccn3)c(C)o2)cc1
(64) COc1ccc(-c2nc3ccccc3n2CCc2ccccc2)cc1

| assay / compound | 57 | 58 | 59 | 60 | 61 | 62 | 63 | 64 |
| --- | --- | --- | --- | --- | --- | --- | --- | --- |
| CBX7 inh z-score | 2.5 | 1.5 | 1.5 | -3.4 | -1.1 | 0.47 | -0.12 | 0.18 |
| CBX7 inh | 1.1 | 1 | 1.1 | 0.87 | 0.94 | 1 | 0.94 | 1 |

An excerpt; rates above refer to the full screens.
